Screening data deposited in PubChem by several laboratories.
FGF22 binding: FGF22 (human) thermal shift binding; calls only at 9.99 µM; 340,000 tested, 1.5% active; recombinant FGF22 thermal shift, SYPRO orange fluorescence; percent of sucrose octasulfate shift, DMSO zero; Q9HCT0;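 active = melting point raised past a set limit in the mean and every replicate; inconclusive = no clear call; three in four hits are not shown here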
Ecoli rRNA inh: inhibits bacterial ribosomal RNA function over humanized ribosomes; GFP signal change (wild-type ribosome), % (test concentration not listed); 350,000 tested, 1.6% active; E. coli WT GFP vs humanized-ribosome RFP mutants, fluorescence, 24 h; stronger effect = lower value; DMSO median 0, no signal -100;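 active = significant combined selectivity score with lowered wild-type GFP, culture density cut under 30%, mutant RFP and density less affected; inactive = any of these conditions unmet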; note: one replicate is shown; some compounds called inactive have numbers as strong as hits
ALR H2O2 inh: human ALR oxidase inhibition via reduced H2O2 | P55789 | purified ALR, DTT oxidation, H2O2 HRP-luminol luminescence | inhibition, % (concentration not given with the values) | 290,000 tested, 3.8% active | AID 485317;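 active = mean and each replicate at 75% or more; inconclusive = only one of the two met; inactive = neither met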;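 note: stock transfer was 7.5 nL into about 7.5 µL; 0% = neutral wells and 100% = wells with inactivated enzyme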
Ecoli growth: blocks Escherichia coli growth. OD600, 23 h; stronger effect = lower value. OD600 absorbance (test concentration not listed). 330,000 tested, 0.21% active;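 active = OD600 absorbance below the run mean of sample wells minus 3.6 SD, in any replicate, cut at about 0.56 in these data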;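 note: stock transfer was 300 nL into about 60 µL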
HNF4A DNA FP: change in binding of human HNF4 alpha to DNA. P41235. HNF4a-FITC DNA binding, fluorescence polarization, 1 h. activity change, % at 10 µM. 360,000 tested, 0.3% active. AID 1224865; in the data active = activity change above about 30%, passing the limit was not always enough;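 note: controls were the assay level and a saturating level of protein; the project sought stronger binding though the title names inhibitors; some compounds called inactive have numbers as strong as hits; positive values seem to mean higher polarization but the record does not say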
Target sequence (P41235 whole entry, looked up): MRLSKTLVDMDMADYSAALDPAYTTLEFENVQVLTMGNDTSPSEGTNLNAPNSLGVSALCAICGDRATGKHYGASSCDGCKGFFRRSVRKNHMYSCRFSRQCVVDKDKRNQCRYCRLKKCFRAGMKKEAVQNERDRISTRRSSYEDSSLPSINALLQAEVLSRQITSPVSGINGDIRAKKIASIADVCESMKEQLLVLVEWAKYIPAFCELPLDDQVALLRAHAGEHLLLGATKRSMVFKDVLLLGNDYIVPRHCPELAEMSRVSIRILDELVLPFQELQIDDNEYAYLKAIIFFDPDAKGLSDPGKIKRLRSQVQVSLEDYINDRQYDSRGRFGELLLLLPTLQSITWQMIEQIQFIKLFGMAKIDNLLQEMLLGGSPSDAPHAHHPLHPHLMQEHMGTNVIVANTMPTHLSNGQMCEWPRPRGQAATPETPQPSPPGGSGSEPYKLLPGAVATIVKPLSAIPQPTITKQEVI
AF4-AF9 inh: blocks AF4 peptide binding to human AF9; P42568; inhibition, % at 10 µM; AlphaScreen, biotin-AF4 peptide binding to FLAG-AF9; 350,000 tested, 0.47% active;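 active = every replicate reaching a set inhibition limit, whatever the replicate mean, cut at about 25% in these data; inconclusive = mean inhibition reaches that limit but some replicates miss it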;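 note: 0% = plate neutral control median and 100% = total signal loss; the record names both 10 and 1 µM as test concentration; the first replicate is given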
Target sequence (P42568 whole entry, looked up): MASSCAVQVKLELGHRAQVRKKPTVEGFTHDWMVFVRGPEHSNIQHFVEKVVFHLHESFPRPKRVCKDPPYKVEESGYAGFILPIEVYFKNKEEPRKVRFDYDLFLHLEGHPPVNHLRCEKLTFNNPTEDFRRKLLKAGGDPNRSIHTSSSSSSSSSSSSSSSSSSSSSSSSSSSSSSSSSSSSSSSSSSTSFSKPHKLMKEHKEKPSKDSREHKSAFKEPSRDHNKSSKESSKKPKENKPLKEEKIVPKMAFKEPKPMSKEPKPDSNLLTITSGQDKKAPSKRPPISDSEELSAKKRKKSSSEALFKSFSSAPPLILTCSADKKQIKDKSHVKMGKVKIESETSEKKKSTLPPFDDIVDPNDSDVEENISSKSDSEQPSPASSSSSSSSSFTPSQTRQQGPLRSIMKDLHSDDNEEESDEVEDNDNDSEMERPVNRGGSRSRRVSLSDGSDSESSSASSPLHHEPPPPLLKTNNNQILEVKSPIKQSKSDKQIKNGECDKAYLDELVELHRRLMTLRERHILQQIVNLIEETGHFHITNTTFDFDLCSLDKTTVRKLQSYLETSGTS
Vif TR-FRET: inhibitors of Vif binding to APOBEC3G peptide, primary screen, biochemical, TR-FRET, GST-Vif 1-94, biotin-A3G peptide, dose response retest (AID 1117319); TR-FRET GST-Vif / biotin-A3G peptide binding; higher % means a stronger effect; test concentration not given here; strong numbers were not always called active; one-dose inhibition, %; IC50 in µM for titrated hits; 260,000 tested, 0.57% active;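 active = above the screen mean plus three standard deviations and confirmed in dose response; inconclusive = results disagree or hit not tested in dose response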;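 note: Vif residues 1-94 fused to GST binding biotinylated APOBEC3G peptide 110-148; 0% = full assay without inhibitor and 100% = GST in place of GST-Vif; retest series ran down from 100 µM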
Ecoli rRNA inh OD600: recorded beside Ecoli rRNA inh, whose call it bears; OD600 change, %; measured here: OD600 growth;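 optical density of the mix in the first replicate; 0 = DMSO median and -100 = no signal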
Ecoli rRNA inh RFP: second read-out of Ecoli rRNA inh, no call of its own (marks repeat the call); RFP signal change, %; measured here: RFP humanized mutant strains;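 first replicate; 0 = DMSO median and -100 = no signal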
Numbers without * were called inactive; i = inactive; ? = inconclusive; · = no result given; & = joins results of further samples.

FGF22 binding,Ecoli rRNA inh,Ecoli rRNA inh OD600,Ecoli rRNA inh RFP,ALR H2O2 inh,Ecoli growth,HNF4A DNA FP,AF4-AF9 inh,Vif TR-FRET,Molecule
i,-12,-12,-1.2,?,0.68,4.9,0.7,0%,O=C(O)C/C(=C\c1cc2c(cc1Br)OCO2)c1nc2ccccc2s1
i,-34,-65,18,·,·,·,10,·,CN1CCCCN2[C@H](C1)[C@@H](c1ccc(C#Cc3ccccc3F)cc1)[C@@H]2CO
i,13,11,-0.1,·,0.68,3.3,-2.3,-8%,CC(C)NC1(C(N)=O)CCN(Cc2ccccc2)CC1
i,-15,-8,-2.5,-3,0.66,-3.2,0.3,-14%,Cc1c(C(=O)N2CCC2)oc2c(F)cccc12
i,-6,-27,12,1,0.7,5.0,-5.4,·,CCc1ccc(CN(C)C(=O)c2cc(COc3cc(C)c(Cl)c(C)c3)on2)nc1
i,-21,-13,-3.8,0,0.68,0.6,7.7,·,CC(=O)c1cccc(NC(=O)CN2CCN(Cc3ccccc3)CC2)c1
i,-20,-30,-13,0,0.73,-1.7,7.5,19%,CC1(c2ccccc2)CC2CC(c3ccccc3)N1O2 (stereo not drawn)
i,4,16,1.9,·,·,·,-5.1,·,C[C@H](CO)N1C[C@H](C)[C@@H](CN(C)C)Oc2ccc(NC(=O)C3CCCCC3)cc2CC1=O

Shown bar-delimited: part of the list above.
molecule | FGF22 binding | Ecoli rRNA inh | Ecoli rRNA inh OD600 | Ecoli rRNA inh RFP | ALR H2O2 inh | Ecoli growth | HNF4A DNA FP | AF4-AF9 inh | Vif TR-FRET
O=C(O)C/C(=C\c1cc2c(cc1Br)OCO2)c1nc2ccccc2s1 | i | -12 | -12 | -1.2 | ? | 0.68 | 4.9 | 0.7 | 0%
CN1CCCCN2[C@H](C1)[C@@H](c1ccc(C#Cc3ccccc3F)cc1)[C@@H]2CO | i | -34 | -65 | 18 | · | · | · | 10 | ·
CC(C)NC1(C(N)=O)CCN(Cc2ccccc2)CC1 | i | 13 | 11 | -0.1 | · | 0.68 | 3.3 | -2.3 | -8%
Cc1c(C(=O)N2CCC2)oc2c(F)cccc12 | i | -15 | -8 | -2.5 | -3 | 0.66 | -3.2 | 0.3 | -14%
CCc1ccc(CN(C)C(=O)c2cc(COc3cc(C)c(Cl)c(C)c3)on2)nc1 | i | -6 | -27 | 12 | 1 | 0.7 | 5.0 | -5.4 | ·
CC(=O)c1cccc(NC(=O)CN2CCN(Cc3ccccc3)CC2)c1 | i | -21 | -13 | -3.8 | 0 | 0.68 | 0.6 | 7.7 | ·
CC1(c2ccccc2)CC2CC(c3ccccc3)N1O2 (stereo not drawn) | i | -20 | -30 | -13 | 0 | 0.73 | -1.7 | 7.5 | 19%

(listing goes on)
FGF22 binding,Ecoli rRNA inh,Ecoli rRNA inh OD600,Ecoli rRNA inh RFP,ALR H2O2 inh,Ecoli growth,HNF4A DNA FP,AF4-AF9 inh,Vif TR-FRET,Molecule
i,-28,-34,17,7,0.59,1.9,0.8,·,Cc1nn(-c2ccccc2)nc1C(=O)Oc1cc(C(F)(F)F)nn1-c1ccccc1
i,-1,6,-0.3,-1,0.81,5.5,-1.9,·,CCOC(=O)[C@@H]1[C@H]2COc3cc(OC)ccc3[C@@H]2N2C(=O)N(c3ccc(Br)cc3)C(=O)[C@@]12C
i,1,12,-0.3,·,·,·,-2.3,·,COCC(=O)N1CC2(C1)[C@@H](c1ccccc1)[C@@H](CO)N2C(=O)c1ccncc1
i,-9,7,32,19,·,12,37*,·,O=C(O)CCCNc1cc(N2CCN(C(=O)c3ccco3)CC2)c2noc3c2c1C(=O)c1ccccc1-3
·,-1,10,5.3,3,0.73,-0.9,4.7,?,COc1ccccc1Nc1nc(N)nc(CSC(=S)N2CCN(c3ccccc3)CC2)n1
i,2,13,-3.3,·,·,·,-2.9,·,C[C@@H]1CN([C@H](C)CO)C(=O)c2cc(NC(=O)C3CC3)ccc2O[C@@H]1CN(C)Cc1ccc(C(=O)O)cc1
i,-19*,-2.6*,4.9*,0,0.62,-2.8,-5.2,-14%,Cc1cc(C)cc(NC(=O)COC(=O)CC2CCCC2)c1
i,-4,-11,3.4,·,·,·,0.7,·,N#C[C@H]1[C@@H](c2ccc(C3=CCCCC3)cc2)[C@@H](CO)N1C(=O)NC1CCCCC1
·,·,·,·,·,0.7,2.8,·,-5%,Cc1ccc(S(=O)(=O)N(C)CCCC(=O)n2nc(C)cc2C)cc1
i,·,·,·,7,0.78,1.9,-2.9,·,Cc1ccc([C@@H]2[C@@H]3C(=O)N(c4ccccc4)C(=O)[C@@H]3[C@]3(C)C(=O)N(Cc4ccccn4)CC(=O)N23)o1
i,3,-2,-3.0,·,·,·,-16,·,C[C@H]1CN([C@@H](C)CO)C(=O)c2cc(NC(=O)c3ccncc3)ccc2O[C@H]1CN(C)S(=O)(=O)c1ccc(F)cc1
·,·,·,·,-3,0.7,-4.3,·,18%,COC(=O)c1ccccc1S(=O)(=O)NC(=O)c1ccccc1
·,·,·,·,-8,0.74,0.0,·,0%,COCCNC(=O)C(c1ccco1)N(C(=O)Cn1nnc2ccccc21)c1cc(C)ccc1C (stereo not drawn)
i,-11,-23,-0.4,·,·,1.5,1.8,·,N#Cc1ccc(C(=O)N2CCCCC2c2cc(C(=O)Nc3ccccc3Cl)no2)cc1 (stereo not drawn)
i,8,4,2.8,7,0.69,0.4,-2.7,-7%,COC(=O)c1ccc(S(=O)(=O)c2ccc(Cl)cc2)c(N)c1
i,2,6,-2.0,·,·,·,-0.7,·,CN(C)CCCNC(=O)C[C@@H]1CC[C@H]2[C@H](COc3ccc(NS(C)(=O)=O)cc3C(=O)N2C)O1
·,·,·,·,·,0.7,-3.5,·,-7%,COc1ccccc1-c1coc2c(CN3CCN(C)CC3)c(O)ccc2c1=O
i,18,4,3.5,-3,0.7,2.5,-0.7,11%,COc1ccc(CC(=O)OCC(=O)Nc2cccnc2Cl)cc1OC
i,6,-7,-1.7,7,0.65,-4.6,5.3,·,O=C(Nc1ncccc1O)c1ccc2c(c1)OCO2
i,-11,-13,-1.2,·,·,·,-13,·,Cc1ccc(S(=O)(=O)N(C)C[C@H]2Oc3c(NC(=O)c4cc(C)nn4C)cccc3C(=O)N([C@@H](C)CO)C[C@H]2C)cc1
i,-11,-12,0.6,0,·,0.0,-1.5,·,Cc1ccccc1NC(=O)N1CCC(C(=O)c2ccc(F)cc2)CC1
·,-17,-25,-9.8,-17,0.68,·,-70,·,COc1ccc(CN(C)CC(=O)Nc2ccc(Cl)cc2F)c(OC)c1
i,-20*,-3.5*,-0.5*,48,0.65,1.0,-15,2%,O=C(CCNc1cccc(Cl)c1)c1cccs1
i,5,-2,1.5,·,0.73,4.9,-3.2,·,CC1CC(CN)CC(CO)C1 (stereo not drawn)
·,·,·,·,-2,0.67,-0.8,·,2%,COc1cccc(-c2c(NC(=O)c3ccco3)n(-c3ccc(C)cc3)nc(C)c2=O)c1
i,-1,1,-1.6,·,·,·,-0.3,·,Cc1ccc(S(=O)(=O)N[C@H]2CC[C@@H](CCNC(=O)CN3CCOCC3)O[C@H]2CO)cc1
i,0,1,-1.0,·,·,·,2.2,·,C[C@@H]1CN([C@@H](C)CO)C(=O)c2c(c3ccccc3n2C)-c2ccccc2CO[C@@H]1CN(C)C
·,·,·,·,-1,0.7,-1.2,·,-7%,CCOc1ccccc1NC(=O)NC1CC2CCCC(C1)N2Cc1nnnn1CCc1ccccc1 (stereo not drawn)
·,·,·,·,-15,0.71,·,·,0%,CCCCP(=O)(CCCC)c1ccccc1C(=O)O
·,·,·,·,·,0.72,-2.5,·,-6%,C1CCCC(N2CCNCC2)CC1
i,-3,6,-2.4,-5,0.68,-1.3,-0.4,-7%,COc1ccc(NC(=O)COC(=O)c2ccc(N3CCCC3=O)cc2)cc1
i,-5,-4,2.4,-9,0.67,-9.1,0.2,·,COC(=O)c1ccc(C(=O)NC2CCCN(Cc3ccc(Cl)cc3)C2)nc1 (stereo not drawn)
·,·,·,·,-8,0.69,1.4,·,-26%,O=C(NCc1ccco1)c1sc2cc(Cl)ccc2c1Cl
i,-8,-14,-1.7,·,0.68,-0.1,0.8,4%,O=C(Nc1ccc(Cl)c(S(=O)(=O)N2CCOCC2)c1)c1ccc(Cl)nc1
i,1,9,-3.0,-2,·,-1.6,-3.4&2.2,4%,CN1CCN(C(=O)C2=C[C@@H](c3coc4ccccc4c3=O)C[C@@H](OCCCCO)O2)CC1
·,·,·,·,-1,0.63,-1.7,·,0%,CC(C)CC(=O)c1c[nH]c(C(=O)NCCc2ccccn2)c1
i,-25,-37,-5.9,1,0.72,7.4,-0.7,-3%,O=C(c1ccc2n[nH]nc2c1)N1CCN(c2ccc(C(F)(F)F)cn2)CC1
i,-9,-10,-0.1,-7,0.73,-3.0,-2.3,3%,O=C(CSc1ccccc1)NC1CCCCCC1
i,-6,3,-1.8,2,0.7,-1.0,-2.9,·,O=C(CNc1ccccc1)NNC1=NCCC1
·,·,·,·,6,0.73,2.9,·,7%,Cc1ccc(Nc2nc3c(c(=O)[nH]c(=O)n3C)n2Cc2ccc(F)cc2)cc1
·,·,·,·,-5,0.71,-3.4,·,10%,CCOC(=O)N1CCN(C(=O)CCSc2ccc(C)cc2)CC1
i,10,9,-10,·,0.66,0.7,0.5,·,COc1ccc(CCNC(=O)CN(c2cccc([N+](=O)[O-])c2)S(C)(=O)=O)cc1OC
i,7,12,-5.4,-6,0.82,0.1,4.7,·,COc1ccc(-c2cc3c(=O)n(CC(=O)NCCCc4ccccc4)ncn3n2)cc1
i,2,0,0.0,·,·,·,-2.4,·,COCC(=O)N1[C@@H]2c3ccc(C4=CCCC4)c(=O)n3C[C@@H]2[C@@H](CO)[C@@H]1C(=O)N1CCCCC1
·,·,·,·,2,0.67,3.1,·,-7%,Cc1[nH]n(-c2ccc([N+](=O)[O-])cc2)c(=O)c1C=NCCc1c[nH]c2ccccc12
i,0,0,0.4,-3,0.65,1.0,4.2,-2%,Cc1ccc(C)c(S(=O)(=O)N2CCCC2CNC(=O)C(=O)NCc2ccccc2C)c1 (stereo not drawn)
i,-37,-63,-13,-26,0.72,1.2,5.2,5%,CCCC/C(O)=C1\C(=O)CC(C)(C)CC1=Nc1ccccc1OC
i,6,9,0.1,-17,0.74,2.9,-7.0,15%,COCCNc1cc(C)nc2c(-c3ccccc3OC)c(C)nn12
i,2,3,-1.2,-4,0.68,3.9,-0.4,·,CCOC(=O)Cc1cc(=O)[nH]c(=O)[nH]1
i,20,16,4.1,-12,0.71,1.6,-1.6,3%,CC1CCN(CC(=O)N2CCc3ccccc32)CC1
i,-6,-7,1.0,·,·,·,0.3,·,COc1ccc(S(=O)(=O)N(C)C[C@H]2OCCCC[C@H](C)Oc3ccc(NS(=O)(=O)c4c(C)noc4C)cc3C(=O)N([C@H](C)CO)C[C@@H]2C)cc1
·,·,·,·,-5,0.66,-2.4,·,4%,CC(C)(C)c1nc2c(C#N)c(-c3ccc(Cl)cc3)ccn2n1
i,3,6,2.8,·,·,8.5,11,·,COC(=O)[C@@]1(Cc2ccc(F)cc2)[C@H]2c3cc(C(=O)N(C)C)n(Cc4ccc(C)o4)c3C[C@H]2CN1C(=O)c1ccccc1
·,·,·,·,·,0.74,2.5,·,-1%,Cc1c(C(=O)N2CCc3ccccc32)oc2c1C(=O)CC(C)(C)C2
i,10,4,2.1,4,0.68,-2.2,-1.8,4%,O=C(C[C@H]1C/C=C\CC[C@H](Cc2ccc(F)cc2)C(=O)O[C@H](c2ccccc2)CNC1=O)N[C@H](CO)Cc1ccccc1

These rows are one share of the data (hit frequency here may not be typical).
